From PubChem BioAssay
rRNA inh HTS: reduced GFP signal of wild-type E. coli, primary screen, bacterial rRNA inhibitor project, GFP/RFP fluorescence, OD600, single point | 1.6% of 350,000 active | E. coli WT GFP vs humanized-ribosome RFP mutants, 24 h; active compounds read low; DMSO median 0, no signal -100 | GFP signal change (wild-type ribosome), % (no concentration beside the values);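 active = significant combined selectivity score with lowered wild-type GFP, culture density cut under 30%, mutant RFP and density less affected; inactive = any of these conditions unmet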; also: one replicate is shown; some compounds called inactive have numbers as strong as hits
Vif A3G: inhibitors of Vif binding to APOBEC3G peptide, primary screen, biochemical, TR-FRET, GST-Vif 1-94, biotin-A3G peptide, dose response retest (AID 1117319); Virion infectivity factor (Human immunodeficiency virus type 1 group M subtype B (isolate …; 0.57% of 260,000 active; TR-FRET GST-Vif / biotin-A3G peptide binding; higher % means a stronger effect; test concentration not given here; strong numbers were not always called active; inhibition, %; hits with a dose series show IC50 in µM;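 active = above the screen mean plus three standard deviations and confirmed in dose response; inconclusive = results disagree or hit not tested in dose response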;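 also: Vif residues 1-94 fused to GST binding biotinylated APOBEC3G peptide 110-148; 0% = full assay without inhibitor and 100% = GST in place of GST-Vif; retest series ran down from 100 µM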
Ecoli growth: E. coli growth inhibition, primary screen, OD600. Escherichia coli growth, 23 h; active compounds read low. OD600 absorbance (concentration not given with the values). 0.21% of 330,000 active;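 active = OD600 absorbance below the run mean of sample wells minus 3.6 SD, in any replicate, cut at about 0.56 in these data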;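 also: stock transfer was 300 nL into about 60 µL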
FGF22 binding: binders of human FGF22 protein, primary screen, FGF22 synaptogenesis inhibitor project, biophysical, thermal shift, single point; Fibroblast growth factor 22 (Homo sapiens), Q9HCT0; recombinant FGF22 thermal shift, SYPRO orange fluorescence; percent of sucrose octasulfate shift, DMSO zero; calls only at 9.99 µM; 1.5% of 340,000 active;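 active = melting point raised past a set limit in the mean and every replicate; inconclusive = no clear call; three in four hits are not shown here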
Target sequence (Q9HCT0 whole entry, looked up): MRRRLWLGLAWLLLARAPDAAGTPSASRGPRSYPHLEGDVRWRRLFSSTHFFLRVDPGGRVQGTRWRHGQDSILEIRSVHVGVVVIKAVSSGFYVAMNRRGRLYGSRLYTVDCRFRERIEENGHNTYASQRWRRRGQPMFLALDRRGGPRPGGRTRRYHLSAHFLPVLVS
HNF4A DNA FP: change in binding of human HNF4A to DNA, primary screen, biochemical, fluorescence polarization, FITC-DNA; Hepatocyte nuclear factor 4-alpha (Homo sapiens), P41235; 1 h; activity change, % at 10 µM; 0.3% of 360,000 active; AID 1224865, 2016; in the data active = activity change above about 30%, passing the limit was not always enough;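 also: controls were the assay level and a saturating level of protein; the project sought stronger binding though the title names inhibitors; some compounds called inactive have numbers as strong as hits; positive values seem to mean higher polarization but the record does not say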
Target sequence (P41235 whole entry, looked up): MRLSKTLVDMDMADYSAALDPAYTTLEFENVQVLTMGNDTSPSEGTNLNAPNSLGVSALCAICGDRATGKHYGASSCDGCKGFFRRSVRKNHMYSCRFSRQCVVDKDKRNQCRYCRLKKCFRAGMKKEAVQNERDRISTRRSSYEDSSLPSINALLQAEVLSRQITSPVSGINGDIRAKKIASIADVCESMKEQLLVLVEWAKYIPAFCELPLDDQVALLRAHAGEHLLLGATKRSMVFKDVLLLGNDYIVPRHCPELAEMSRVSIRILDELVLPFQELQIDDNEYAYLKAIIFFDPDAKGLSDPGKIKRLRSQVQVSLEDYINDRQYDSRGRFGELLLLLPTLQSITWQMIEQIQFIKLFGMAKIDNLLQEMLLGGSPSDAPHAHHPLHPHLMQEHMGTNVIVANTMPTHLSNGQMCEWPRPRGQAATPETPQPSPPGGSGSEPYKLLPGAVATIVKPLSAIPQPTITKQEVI
AF4-AF9 inh: inhibitors of AF4 peptide binding to AF9, primary screen, biochemical, AlphaScreen, biotin-AF4 peptide, FLAG-AF9, single point; Protein AF-9 (Homo sapiens), P42568; AID 651704, 2012; 0.47% of 350,000 active; inhibition, % at 10 µM;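 active = every replicate reaching a set inhibition limit, whatever the replicate mean, cut at about 25% in these data; inconclusive = mean inhibition reaches that limit but some replicates miss it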;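 also: 0% = plate neutral control median and 100% = total signal loss; the record names both 10 and 1 µM as test concentration; the first replicate is given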
ALR inh: inhibitors of human ALR sulfhydryl oxidase, primary screen, biochemical, H2O2 detection, HRP-luminol luminescence, single point; inhibition, % (concentration not given with the values); purified ALR, DTT oxidation; 3.8% of 290,000 active;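 active = mean and each replicate at 75% or more; inconclusive = only one of the two met; inactive = neither met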;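 also: stock transfer was 7.5 nL into about 7.5 µL; 0% = neutral wells and 100% = wells with inactivated enzyme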
Target sequence (P55789 whole entry, looked up): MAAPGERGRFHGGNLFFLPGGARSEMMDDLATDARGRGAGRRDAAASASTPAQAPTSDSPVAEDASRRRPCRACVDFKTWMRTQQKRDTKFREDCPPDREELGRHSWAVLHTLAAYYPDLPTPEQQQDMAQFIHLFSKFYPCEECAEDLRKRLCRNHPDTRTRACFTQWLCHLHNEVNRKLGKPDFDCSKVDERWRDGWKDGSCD
rRNA inh HTS OD600: also measured in rRNA inh HTS; calls as there; OD600 change, %; measured here: OD600 growth;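 optical density of the mix in the first replicate; 0 = DMSO median and -100 = no signal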
rRNA inh HTS RFP: recorded beside rRNA inh HTS, whose call it bears; RFP signal change, %; measured here: RFP humanized mutant strains;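 first replicate; 0 = DMSO median and -100 = no signal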
* marks the source's active call; other numbers are inactive results; i = inactive; u = inconclusive; x = not tested or not shown; ! = not active in a repeat. Not all compounds are listed; rates above refer to the full screens.

SMILES	rRNA inh HTS	rRNA inh HTS OD600	rRNA inh HTS RFP	Vif A3G	Ecoli growth	FGF22 binding	HNF4A DNA FP	AF4-AF9 inh	ALR inh
COc1ccc(/C=C/C(=O)NC2CC3CCC2C3)cc1 (stereo not drawn)	-3	1	1.5	x	0.65	i	-0.4	4.4	x
CCOC(=O)[C@]12CCC=C1N(Cc1cccc3ccccc13)C(=O)[C@H](CC(=O)N1CCSCC1)C2	x	x	x	x	x	i	2.9	2.6	x
O=C(NCC(c1cccnc1)N1CCN(c2ccccc2F)CC1)OCc1ccccc1 (stereo not drawn)	x	x	x	-1%	0.78	x	-2.5	x	-4
COc1ccc(NC(=O)N(C)C[C@H]2OCCCC[C@@H](C)Oc3ccc(NC(=O)NC4CCCCC4)cc3C(=O)N([C@@H](C)CO)C[C@H]2C)cc1	-2	-7	3.8	x	x	i	x	0.6	x
C[C@H](NC(=O)[C@@H]1[C@@H](CO)[C@@H]2Cn3c(cccc3=O)[C@H]1N2CCC(F)(F)F)c1ccccc1	0	-2	-2.5	x	x	i	x	-1.2	x
Cc1ccc(S(=O)(=O)N(C)C[C@H]2OCCCC[C@H](C)Oc3ccc(NS(=O)(=O)c4cn(C)cn4)cc3C(=O)N([C@@H](C)CO)C[C@H]2C)cc1	-1	3	1.1	x	x	i	x	3.5	x
CN(C)CC(C)(C)CNC(=O)C1CCN(Cc2ccccc2O)CC1	x	x	x	5%	0.72	x	-2.2	x	8
COc1ccc(CNC(=O)CSc2nnc3c(n2)[nH]c2ccc(OC)cc23)cc1	1	-1	1.4	x	0.72	i	-3.5	0.8	2
CNC[C@H]1Oc2cc(C#CC(C)C)ccc2S(=O)(=O)N([C@H](C)CO)C[C@@H]1C	1	-1	-0.9	x	x	i	x	3.1	x
Cc1ccc(C(=O)O)cc1NC(=S)NC(=O)Cc1ccccc1	x	x	x	-2%	0.75	x	-0.8	x	2
O=C1CC(N2CCN(c3ccccc3F)CC2)C(=O)N1c1ccc2c(c1)OCCO2 (stereo not drawn)	x	x	x	30%	0.7	x	1.8	x	-6
CC/C=C/C(=O)N1CC2(CC(c3cccc(NC(=O)c4ccccc4)c3)=NO2)C[C@@H]1C(N)=O (stereo partly drawn)	10	17	2.9	-4%	x	i	-0.3	4.4	-7

Some of these compounds in order of the rRNA inh HTS OD600 value, high to low:
| Compound | rRNA inh HTS OD600 |
| --- | --- |
| COc1ccc(/C=C/C(=O)NC2CC3CCC2C3)cc1 (stereo not drawn) | 1 |
| CNC[C@H]1Oc2cc(C#CC(C)C)ccc2S(=O)(=O)N([C@H](C)CO)C[C@@H]1C | -1 |
| COc1ccc(NC(=O)N(C)C[C@H]2OCCCC[C@@H](C)Oc3ccc(NC(=O)NC4CCCCC4)cc3C(=O)N([C@@H](C)CO)C[C@H]2C)cc1 | -7 |

(next part)
SMILES	rRNA inh HTS	rRNA inh HTS OD600	rRNA inh HTS RFP	Vif A3G	Ecoli growth	FGF22 binding	HNF4A DNA FP	AF4-AF9 inh	ALR inh
CC(=O)N1CCCC1C(=O)O (stereo not drawn)	x	x	x	x	x	i	-1.8	-1.1	x
Cn1c(SCC(=O)c2ccccc2)nnc1-c1ccncc1	2	5	-2.5	30%	0.67	i	-3.5	-1.4	x
CCOC(=O)Nc1c(Cl)[nH]c(=O)n(C)c1=O	x	x	x	-16%	0.66	i	-3.5	0.2	x
CC(C)N(C(=O)CSc1nnc(-c2cc3ccccc3cc2O)n1Cc1ccco1)C(C)C	x	x	x	10%	0.71	x	-0.8	x	x
Cc1oc(-c2ccccc2F)nc1CS(=O)CC(=O)NCc1cccs1 (stereo not drawn)	0	-1	3.6	20%	0.78	i	-1.8	-12	100*
C[C@@H]1CN([C@H](C)CO)C(=O)c2cc(NC(=O)NC3CCCCC3)ccc2O[C@@H](C)CCCCO[C@@H]1CN(C)Cc1ccc(Cl)c(Cl)c1	0	2	1.0	x	x	i	x	4.7	x
CCCNc1nc(C)cc(-c2cc(C(=O)Nc3ccccc3)on2)n1	10	-4	-2.7	x	x	i	-3.2	-1.7	3
COC(=O)Nc1nnc(/C=C/c2ccccc2)s1	12	4	-7.2	13%	0.68	i	2.4	-3.1	-2
C[C@H](CO)N1C[C@H](C)[C@H](CN(C)S(=O)(=O)c2ccc(F)cc2)Oc2c(NC(=O)c3ccc(-c4nccs4)cc3)cccc2C1=O	-5	-9	-2.1	x	x	i	x	2.0	x
O=C(C1CCC1)N1CCc2cc(S(=O)(=O)NCc3ccco3)ccc21	x	x	x	-5%	0.71	x	-0.7	x	-7
CC(=O)NCCOc1nc(N2CCCCC2)nc(N2CCCCC2)n1	-25*	3.7*	5.7*	x	0.74	i	-1.6	-0.5	1
COc1cc(OC)cc(C2=Cc3ccc(OC)cc3C(CC(C)=O)N2c2ccc(-c3cccs3)cc2)c1 (stereo not drawn)	-35	-61	8.4	x	x	i	1.9	0.7	x

Taken from the entries so far for reference:
SMILES	rRNA inh HTS	rRNA inh HTS OD600	rRNA inh HTS RFP	Vif A3G	Ecoli growth	FGF22 binding	HNF4A DNA FP	AF4-AF9 inh	ALR inh
CC(=O)N1CCCC1C(=O)O (stereo not drawn)	x	x	x	x	x	i	-1.8	-1.1	x
Cn1c(SCC(=O)c2ccccc2)nnc1-c1ccncc1	2	5	-2.5	30%	0.67	i	-3.5	-1.4	x
CCOC(=O)Nc1c(Cl)[nH]c(=O)n(C)c1=O	x	x	x	-16%	0.66	i	-3.5	0.2	x

The results go on.
SMILES	rRNA inh HTS	rRNA inh HTS OD600	rRNA inh HTS RFP	Vif A3G	Ecoli growth	FGF22 binding	HNF4A DNA FP	AF4-AF9 inh	ALR inh
CN(C1CCS(=O)(=O)C1)S(=O)(=O)c1ccc(N2CCCC2=O)cc1 (stereo not drawn)	6	9	-1.7	0%	0.65	i	-6.2	-6.9	-3
CCCCn1c(CNC(=O)CC)nc2ccccc21	6	4	-12	1%	0.72	i	1.1	-23	-1
COc1ccc(N(CC(=O)NCc2ccc(F)cc2)C(=O)c2snc(C(N)=O)c2N)cc1	0	-5	-1.6	x	0.67	i	-0.4	1.4	x
CC(C)(C)CC(=O)Nc1nnc(SCC(=O)Nc2ccccc2F)s1	-5	-10	-0.3	-2%	0.65	i	-2.6	-0.5	6
COc1ccc(CN(C)C[C@H]2OCCCC[C@@H](C)Oc3ccc(NS(=O)(=O)c4cccs4)cc3C(=O)N([C@H](C)CO)C[C@@H]2C)cc1	1	5	-1.5	x	x	i	x	1.5	x
O=C(CN1CCCCC1)N/N=C/c1ccccc1Br	20	17	-2.4	2%	x	i	5.4	-11	0
O=Cc1c(NCCc2cccc(F)c2)c2ccccc2[nH]c1=O	4	4	2.8	-4%	0.6	i	-0.8	-5.8	-7
O=C1Cc2cc(S(=O)(=O)NCc3ccccc3Cl)cc3c2N1CCC3	-1	-2	4.5	5%	0.68	i	1.8	-1.9	-1
C[C@@H]1CN([C@@H](C)CO)C(=O)c2cc(NS(=O)(=O)c3ccc(F)cc3)ccc2O[C@@H](C)CCCCO[C@@H]1CN(C)CC1CCCCC1	4	-3	2.2	x	x	i	x	1.8	x
O=C(NC(Cc1ccccc1)C(=O)O)/C(=C\c1ccco1)NC(=O)c1ccccc1 (stereo not drawn)	x	x	x	u	0.69	x	-5.6	x	46
CC(=O)c1c(C)[nH]c(C(=O)OCc2cc(-c3ccco3)on2)c1C	2	-9	2.7	x	x	i	0.3	-3.1	x
Cc1ccc(N(C(=O)CNC(=O)c2ccco2)C(C(=O)NCC2CCCO2)c2ccccc2)c(C)c1 (stereo not drawn)	5	8	-1.9	x	0.66	i	2.5	8.7	-3
C[C@H](CO)N1C[C@H](C)[C@@H](CN(C)C(=O)Nc2ccc(C(F)(F)F)cc2)OCCCC[C@H](C)Oc2ccc(NS(=O)(=O)c3ccc(Cl)cc3)cc2C1=O	-4	-7	-4.5	x	x	i	x	-2.8	x
Cn1c(=O)c(=O)n(C)c2cc(S(=O)(=O)N3CCN(C4CCCCC4)CC3)ccc21	7	5	0.2	2%	0.74	i	2.0	3.7	-13
COc1ccc(NC(=O)c2ccccc2NC(=O)CSc2ccc(Cl)cc2)cc1	x	x	x	58µM*!	0.76	x	-1.8	x	-4
CCNc1nnc(SCC(=O)c2c(N)n(C3CC3)c(=O)[nH]c2=O)s1	8	10	-2.2	13%	0.66	i	0.2	4.7	-5
CC(C)(C)NC(=O)C(c1ccncc1)N(Cc1cccs1)C(=O)Cn1nnc(-c2ccc(F)cc2)n1 (stereo not drawn)	x	x	x	14%	0.74	x	0.8	x	1
COc1ccc(N2CCN(C(=O)c3cccc(S(=O)(=O)N4CCOCC4)c3)CC2)cc1	5	8	3.2	-2%	0.7	i	-2.6	-1.2	23
Cc1nn(-c2ccc(F)cc2)c(Cl)c1C(=O)OC(C)C(=O)N(C)C1CCCCC1 (stereo not drawn)	1	-28	-1.9	-5%	0.68	i	-1.7	0.2	0
Cc1c(N(C(=O)c2ccccn2)C2(C(=O)NC3CCCC3)CCCCC2)c(=O)n(-c2ccccc2)n1C	9	11	1.5	x	0.73	i	-1.4	1.3	x
CC1(C)Cc2c(cnn2-c2ccccc2)C(NC(=O)CCCn2cncn2)C1 (stereo not drawn)	7	12	-2.0	x	0.72	i	0.4	1.1	13
CN1CCC(OC(=O)COc2ccc(C(C)(C)C)cc2)CC1	x	x	x	1%	0.75	x	-1.6	x	-1
CS(=O)(=O)c1[nH]nc(-c2ccccc2)c1C#N	-6	1	2.6	0%	0.61	i	-2.9	-0.5	-10
Cc1cccc(C)c1NC1=C(Cl)C(=O)OC1OC(=O)c1ccccc1 (stereo not drawn)	-32	-49	5.4	5%	0.64	i	1.2	0.1	-6
O=C(O)c1cc(N2C(=O)C3C4C=CC(C4)C3C2=O)ccc1NCc1cccnc1 (stereo not drawn)	x	x	x	2%	0.65	x	2.5	x	-13
N#CC1=C(N)Oc2n[nH]c(-c3cccs3)c2C1c1cccs1 (stereo not drawn)	x	x	x	10%	0.71	x	-5.4	x	59
CCC(=O)Nc1ccc2c(c1)C(=O)N(C)C[C@@H](OC)[C@@H](C)CN(C(=O)c1ccccn1)[C@@H](C)CO2	4	-1	-3.9	x	x	i	x	u	x
CCN(c1ccccc1)S(=O)(=O)c1ccc(C(=O)Nc2ccccn2)cc1	-13	-21	-4.4	-2%	0.71	i	3.5	0.1	3
CN(Cc1nc(-c2ccccc2)no1)C(=O)c1ccco1	2	-1	3.9	x	0.68	i	-1.8	-1.0	8
Cc1onc(-c2c(F)cccc2Cl)c1C(=O)NCc1ccc2c(c1)OCO2	-12	-17	-2.0	x	0.72	i	-2.4	0.2	-11
CCCNC(=O)C[C@H]1CC[C@@H]2[C@H](COC[C@@H](O)CN2C(=O)Nc2cccc(Cl)c2)O1	-58	-74	-17	x	x	i	x	-1.3	x
O=C(NCc1ccccc1OC(F)(F)F)C1CCC(=O)N(Cc2ccccn2)C1 (stereo not drawn)	2	10	0.1	x	0.7	i	-3.3	0.7	0
